Cruzain inh Det: qHTS Assay for Promiscuous and Specific Inhibitors of Cruzain (with detergent); Potency, µM, without a hit: max response, negative = inhibition, actives largely listed as inhibitors; purified cruzain, Z-FR-AMC fluorescence, 0.01% Triton; 0.43% of 200,000 active; AID 1478, 2009; Cruzipain (Trypanosoma cruzi), P25779; active means well fitted curve in the direction sought with a large enough effect; inconclusive means small, poorly fitted or top-dose-only effect, or another doubt; inactive means no such curve, though single readings can be large; an effect the other way counts as inactive or inconclusive;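 further: plate controls were neutral wells for no effect and buffer without enzyme for full effect; nearly all actives have a fitted effect of over 40% in size; top concentration of the series not given in the record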
Target sequence (P25779 123-467 limits assumed): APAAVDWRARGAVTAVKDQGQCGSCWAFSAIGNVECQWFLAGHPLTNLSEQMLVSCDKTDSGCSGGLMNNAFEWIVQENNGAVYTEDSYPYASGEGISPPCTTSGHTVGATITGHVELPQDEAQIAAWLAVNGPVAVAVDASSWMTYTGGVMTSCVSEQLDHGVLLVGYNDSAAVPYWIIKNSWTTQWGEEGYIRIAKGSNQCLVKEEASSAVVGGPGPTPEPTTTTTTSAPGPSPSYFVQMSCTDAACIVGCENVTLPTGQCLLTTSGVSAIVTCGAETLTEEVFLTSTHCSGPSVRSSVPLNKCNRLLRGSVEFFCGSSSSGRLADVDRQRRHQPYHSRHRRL
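Sodium acetate buffer (100 mM, pH 5.5) containing 5 mM DTT and 0.01% Triton X-100 hosted 1.5 nM cruzain and test compound for 15 min at room temperature. Cleavage of 2 uM Z-FR-AMC was then tracked by fluorescence.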
MARV entry inh: qHTS for inhibitors of binding or entry into cells for Marburg Virus. Marburg virus pseudotyped entry inhibition, cell reporter; control for the full effect not named in the record; about a third of the inactives were read at about 46 µM. Potency, µM (series often up to 37.8 µM), for inactives: top-dose activity change, negative = inhibition, most hits filed as inhibitors. 1.8% of 300,000 active; active = well fitted inhibition curve with a large enough effect; inconclusive = small, poorly fitted or top-dose-only effect, or effect the other way; inactive = flat fitted curve, though single readings scatter; tested in HEK293 cells; about a fifth of its hits are not listed in these tables; further: on the % scale 0 is the no-effect control and ±100 the full control effect; luciferase read-out
2A StopGo: High Throughput Screening for Foot and Mouth Disease Virus Antivirals | human cells with a luciferase reporter of 2A StopGo recoding; control for the full effect not named in the record | Potency, µM (highest dose often 57.9 µM), inactives show at the top dose signal change, negative = less light | 1.2% of 410,000 active | AID 1159524, 2015; active = well fitted falling curve with a large enough effect; inconclusive = small, poorly fitted or top-dose-only effect; inactive = no such curve, though single readings can be large or run the other way; tested in HEK293T cells; further: on the % scale 0 is the no-effect control and ±100 the full control effect; nearly all actives have a fitted effect of over 45% in size; luciferase light after 4 h
NS1 function inh: qHTS Assay for Inhibitors of Influenza NS1 Protein Function; S. cerevisiae slowed by influenza A NS1, growth recovery by OD600; Potency, µM (highest dose often 46.1 µM), for the others: top-dose activity, positive = more growth; 0.4% of 270,000 active; further: actives are rising curves; nearly all actives have a fitted effect of over 50% in size
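S. cerevisiae expressing influenza A NS1, grown in glucose, washed, then diluted 1:100 into pH 6.0 -URA galactose medium with 23 nl compound. Growth recovery read as OD600; NS1-free strain serves as control.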
SARS PLpro yeast: qHTS of Yeast-based Assay for SARS-CoV PLP; S. cerevisiae expressing SARS-CoV PLpro, growth rescue; control for the full effect not named in the record; Potency, µM (series often up to 32.9 µM), without a hit: top-dose activity, positive = growth rescue; 0.19% of 330,000 active; further: 0% is about no effect; nearly all actives have a fitted effect of over 55% in size; growth read by luminescence after 48 h
Cruzain noTriton: qHTS Assay for Promiscuous and Specific Inhibitors of Cruzain (without detergent). Cruzipain (Trypanosoma cruzi), P25779. purified cruzain, Z-FR-AMC fluorescence, no detergent. Potency, µM, for inactives: max response, negative = inhibition, actives largely listed as inhibitors. 2.3% of 200,000 active; active means well fitted curve in the direction sought with a large enough effect; inconclusive means small, poorly fitted or top-dose-only effect, or another doubt; inactive means no such curve, though single readings can be large; an effect the other way counts as inactive or inconclusive;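 further: plate controls were enzyme without inhibitor for no effect and buffer without enzyme for full effect; nearly all actives have a fitted effect of over 40% in size; top concentration of the series not given in the record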
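Purified cruzain at 1.5 nM, pre-incubated 15 min with compound at room temperature in 100 mM sodium acetate pH 5.5, 5 mM DTT, 0.00005% Triton X-100. Reaction started with 2 uM Z-FR-AMC; AMC fluorescence increase over 60 s gives rate.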
Lassa entry inh: qHTS for Inhibitors of binding or entry into cells for Lassa Virus. Lassa virus pseudotype entry inhibition, cell reporter; control for the full effect not named in the record. Potency, µM (highest dose often 37.9 µM), inactives show at the top dose activity change, negative = inhibition, hits mostly inhibitors. 1.2% of 300,000 active; active means well fitted inhibition curve with a large enough effect; inconclusive means small, poorly fitted or top-dose-only effect, or effect the other way; inactive means flat fitted curve, though single readings scatter; tested in HEK293 cells; further: on the % scale 0 is the no-effect control and ±100 the full control effect; nearly all actives have a fitted effect of over 50% in size; luciferase read-out
RE007 growth inh: qHTS Assay for Inhibitors of the HIV-1 protein Vpr; S. pombe RE007 Vpr strain, BacTiter-Glo ATP luminescence, 24 h; control for the full effect not named in the record; Potency, µM (highest dose often 92.2 µM), inactives show at the top dose activity change, negative = less growth; 0.21% of 360,000 active; AID 651644, 2012; active = well fitted falling curve with a large enough effect; inconclusive = small, poorly fitted or top-dose-only effect; inactive = no such curve, though single readings can be large or run the other way;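 further: on the % scale 0 is the no-effect control and ±100 the full control effect; nearly all actives have a fitted effect of over 50% in size; the assay follows cell death caused by Vpr and the record does not say whether a fall means rescue or toxicity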
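Fission yeast strain RE007, carrying one chromosomally integrated HIV-1 vpr copy, was seeded at OD 0.01 in PMG+AL medium with 23 nL pinned compound. After 24 h at 30 °C and 99% humidity, viability was read by BacTiter-Glo luminescence.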
* hit, by the source's call; ? = inconclusive; · = not tested or not shown; [ ] = dose if it differs, or a comment. Unless noted, the call rests on the fitted dose curve; in most records, active means well fitted rising curve with a large enough effect; inconclusive means small, poorly fitted or top-dose-only effect; inactive means no such curve, though single readings can be large or run the other way. Potency means the concentration at half of the fitted maximal effect.

SMILES	Cruzain inh Det	MARV entry inh	2A StopGo	NS1 function inh	SARS PLpro yeast	Cruzain noTriton	Lassa entry inh	RE007 growth inh
CC1CCCCC12NC(=O)N(CC(=O)NNC(=O)c1ccc(Br)cc1)C2=O (stereo unspecified)	·	-10%[46.1 µM]	-9%	·	15%	·	-3%[46.1 µM]	3%
CCc1ccc(Nc2nc(C)cc(C)n2)cc1	·	3%	57%[activator]	-18%	-2%	·	29%	-3%
Cc1ccc(C(C)(C)C)cc1S(=O)(=O)Nc1cccc(C(=O)N2CCN(c3ccccn3)CC2)c1	·	?	-13%	·	-1%	·	?	0%
N=C1/C(=C/c2cccn2-c2cccc([N+](=O)[O-])c2)C(=O)N=C2SC=CN12	-4.5%	-21%	·	2%	-18%	?	6%	·
O=C(NNC(=O)c1ccc(Cl)cc1Cl)c1csc(-c2cccnc2)n1	·	·	24%	-3%	-1%	·	·	-5%
CC1=NN(c2ccccc2)C(=O)/C1=C/c1c(O)[nH]c(=O)[nH]c1=O	·	?	-19%	·	0%	·	-8%	-15%
Cc1ccc(N=C(c2cccs2)N2CCOCC2)cc1	3.0%	21%	-14%	1%	-1%	-4%	19%	-9%
COC(=O)c1sccc1S(=O)(=O)N1CCN(c2ccc(C)cc2C)CC1	-6.3%	·	0%	·	·	5%	1%[46.1 µM]	·
CCN1CCN(/C=N/c2nc(C)cs2)CC1	4.4%	29%	44%[activator]	-1%	-4%	6%	?	-16%
CC(=O)c1cccc(NC(=O)N[C@@H](CC(C)C)C(=O)O)c1	-0.4%	0%	14%	10%	6%	-2%	12%	13%
CN1CCN(c2ccc([N+](=O)[O-])cc2NC(=O)c2ccccc2)CC1	-0.2%	-29%	3%	10%	3%	7%	28%	-5%
CCOC(=O)c1sc(=S)n2c1[nH]c(=O)c1ccc(C(=O)OC)cc12	-2.8%	-3%	5%	-72%	-1%	25µM*	-5%	-21%
CCOc1ccc(C2NC(=O)CCC2[N+](=O)[O-])cc1 (stereo unspecified)	·	-16%	-11%	-3%	1%	·	?	-8%
CC1CCC(C(=O)NC(C(=O)N2CCC3(CC2)OCCO3)C(C)C)CC1 (stereo unspecified)	-0.5%	4%	-1%	-4%	7%	1%	-15%	-6%
COc1ccc(CC(=O)NC(=S)Nc2ccc(S(N)(=O)=O)cc2)cc1	-9.6%	?	-20%	8%	-4%	1%	25%	-24%
CC(=O)c1cccc(NC(=O)CCn2c(=S)oc3ccccc32)c1	·	3%[46.1 µM]	37%[activator]	9%	0%	·	-12%[46.1 µM]	-5%
CCCNC(=O)c1nnsc1Sc1ccc(Cl)cc1	·	11%[46.1 µM]	5%	·	4%	·	4%	12%
CCOC(=O)c1c(N)sc(C(=O)Nc2ccccc2)c1C	·	·	2%	-34%	-3%	·	·	?
O=C(COC(=O)C1c2ccccc2Oc2ccccc21)Nc1ccc2c(c1)OCO2	-12%	16%	-5%	-8%	-12%	?	3%	-15%
O=C1CSC(c2ccncc2)N1Cc1ccc(F)cc1 (stereo unspecified)	·	2%[46.1 µM]	0%	3%	-1%	·	-2%[46.1 µM]	6%
COc1ccc(-n2ncc3c2ncn2nc(COc4ccc(Cl)cc4)nc32)cc1	-1.4%	19%[46.1 µM]	17%	·	·	-1%	-29%[46.1 µM]	·
Clc1ccc(-c2nc3ncccn3c2Cl)cc1	·	?	9%	·	1%	·	3%[46.1 µM]	9%
COC(=O)c1ccc(CSc2nnc(CNC(=O)c3ccc(OC)cc3)o2)o1	2.9%	24%	2%	-6%	?	1%	0%	-3%
O=C(Nc1ccccc1)[C@@H]1CCCN1S(=O)(=O)c1ccc(Cl)cc1	·	-15%	-5%	·	9%	·	16%	-14%
Cc1c(C)n2c(SCC(=O)N3CCN(c4ccccc4)CC3)nnc2[nH]c1=O	·	-3%	-4%	·	·	·	4%	-15%
CCn1c(N2CCN(S(=O)(=O)c3ccc(Cl)cc3)CC2)nc2ccccc21	·	?	?	-42%	-2%	·	?	-1%
c1ccc(OCCCn2nnc(-c3ccncc3)n2)cc1	-4.0%	-15%	·	-6%	-9%	8%	-18%	1%
CC1(C)CC(=O)C2=C(C1)OC(N)=C(C#N)C2c1ccccc1 (stereo unspecified)	1.7%	28%	-17%	-6%	-3%	5%	15%	17%
CN(Cc1cccc(F)c1)C(=O)c1ccccc1Sc1ccccc1C#N	·	-9%	-17%	-53%	-12%	·	-12%	16%
CCOC(=O)C1(CC2CC2)CCN(Cc2cc(Cl)c(O)c(OC)c2)CC1	·	?	-28%	2%	-1%	·	?	-3%
Cc1nn2c(-c3ccc(Cl)cc3)ccnc2c1-c1ccccc1	2.0%	?	3%	3%	0%	-3%	0%	4%
O=C(Nc1ccc2oc(-c3ccccc3F)nc2c1)c1ccco1	·	?	21%	·	-3%	·	-16%[46.1 µM]	-7%
Cc1ccc(NC(=O)CN2C(=O)NC3(CCCC3)C2=O)c(Cl)c1	·	-6%[46.1 µM]	9%	19%	19%	·	1%[46.1 µM]	-2%
O=C(CSc1nc2cc(C(F)(F)F)ccc2n1Cc1ccccc1)NC1CCS(=O)(=O)C1 (stereo unspecified)	-8.1%	?	0%	25%	19%	?	?	10%
N#Cc1nc(-c2cccs2)oc1NCCCN1CCOCC1	-18%	0%	·	-2%	-1%	12%	5%	0%
CCOc1cc(/C=N/O)ccc1OCc1ccc(F)cc1	-9.8%	?	5%	-3%	-13%	-15%	5%	-11%
O=C(Nc1cc2c(cc1C(=O)c1ccccc1Cl)OCCO2)c1ccc(Br)cc1	-1.6%	·	-11%	·	·	1%	2%[46.1 µM]	·
COC(=O)c1ccc(C)c(NS(=O)(=O)c2ccc(C)c([N+](=O)[O-])c2)c1	-5.6%	-8%	31%[activator]	1%	-4%	2%	-3%	12%
Cc1ccc(C2=NN(C3=NN=C(N)Cc4ncnn43)C(O)(C(F)(F)F)C2)cc1 (stereo unspecified)	·	·	-8%	3%	-1%	·	·	9%
Cc1cccc(C)c1NC(=O)Nc1ccccc1-n1ccnc1	·	-11%[46.1 µM]	22%	-7%	2%	·	9%[46.1 µM]	-11%
O=C(c1ccco1)N1CCN(Cc2cc(=O)c(OCc3ccccc3Cl)co2)CC1	·	-6%[46.1 µM]	-3%	·	2%	·	3%	1%
NC(=S)NNc1cccc2cccnc12	·	-9%	-12%	0%	0%	·	-23%	-3%
Cn1c(SCc2cccc(Cl)c2)nc(C(F)(F)F)cc1=O	-7.3%	-5%	?	-7%	3%	1%	-17%	-15%
Cc1cc(C)cc(NC(=O)CSc2nnc(-c3cc(C)[nH]n3)n2N)c1	·	?	-4%	9%	29%	·	21%[46.1 µM]	-14%
CC(=O)OCC[n+]1c(C)n(-c2ccccc2)c2ccc(Cl)cc21	·	?	-9%	·	-1%	·	-9%[46.1 µM]	-5%
Cc1ccc(S(=O)(=O)NCCC(=O)OCc2ccc([N+](=O)[O-])cc2)cc1C	·	?	-7%	·	-3%	·	4%	-6%
COc1ccc(-c2noc(CCC(=O)NCC3CCCO3)n2)cc1 (stereo unspecified)	·	-24%	-14%	0%	-1%	·	11%	-16%
C(/C=C/C=C/Nc1ccccc1)=Nc1ccccc1	3.4%	6%	17%	0%	1%	10%	13%	-8%
CCOC(=O)c1c(C)nc(-c2ccccc2)nc1NC(=O)CC	1.4%	?	-3%	?	26%	2%	1%	-8%
COc1ccc(-c2cc3nc4c(c(=O)n3[nH]2)CCC4)cc1	1.7%	?	14%	?	-8%	-24%	11%	-25%
(more compounds)
SMILES	Cruzain inh Det	MARV entry inh	2A StopGo	NS1 function inh	SARS PLpro yeast	Cruzain noTriton	Lassa entry inh	RE007 growth inh
Cc1ccc(COC(=O)c2cccc(S(=O)(=O)N3CCCCC3)c2)cc1	·	-6%	-14%	·	-2%	·	?	14%
Cc1cccc(NC(=O)c2ccc([N+](=O)[O-])o2)n1	-1.1%	?	-24%	-33%	-7%	-11%	-16%	?
COc1ccc(S(=O)(=O)N2CCCCC2)cc1NC(=O)CCc1nc2ccccc2c(=O)[nH]1	·	-16%	4%	·	0%	·	0%	-4%
Nc1nc(NCc2ccco2)nc(N2CCCCC2)c1[N+](=O)[O-]	-6.6%	10µM*	-22%	-11%	-9%	-11%	1%	-4%
O=c1c(-c2ccc(Cl)cc2)[n+]([O-])c2ccccc2n1OCc1ccccn1	4.2%	-6%	4%	1%	-6%	-4%	-2%	4%
Cc1ccnc2nc(C(=O)OCCOc3ccc(Cl)cc3)nn12	·	?	4%	·	5%	·	10%	1%
Cc1cc(NC(=O)COC(=O)c2n[nH]c3ccccc23)no1	1.5%	2%	16%	-10%	13%	2%	1%	-2%
Cc1cc(C)c(S(=O)(=O)N2CCCC(C(=O)NCc3cccnc3)C2)c(C)c1 (stereo unspecified)	·	-22%	?	2%	-4%	·	-25%	-17%
COc1ccc(N(CC(=O)NCc2ccccc2)S(=O)(=O)c2c(C)noc2C)cc1	9.5%	?	23%	-11%	-12%	0%	-7%	4%
Oc1ccccc1C1CC(c2cccs2)=NC(c2cccc(Br)c2)N1 (stereo unspecified)	·	?	21%	·	-21%	·	-14%	?
Cc1ccsc1C(=O)N(Cc1nnc(-c2ccccc2Cl)o1)C1CC1	·	15%	9%	·	-2%	·	-3%	2%
O=[N+]([O-])c1ccc(NCc2ccc(Cl)cc2)c2ccncc12	·	?	?	-3%	-1%	·	-5%[46.1 µM]	-6%
O=C(c1ccco1)N1CCN(c2nc3ccc(Cl)cc3s2)CC1	-13%	·	-7%	·	·	-3%	-1%[46.1 µM]	·
COc1c(Cl)cc(Cl)cc1/C=C(\C#N)c1nc2ccccc2[nH]1	-0.6%	·	?	·	·	2%	-2%[46.1 µM]	·
CCc1cc2c(=O)c(-c3ccon3)c(N)oc2cc1OC	0.6%	-27%	·	-85%	-22%	-5%	?	-11%
